StopGo reporter – High Throughput Screening for Foot and Mouth Disease Virus Antivirals; human cells with a luciferase reporter of 2A StopGo recoding; control for the full effect not named in the record; Potency, µM (top dose mostly 57.9 µM), for the others: at the highest dose signal change, negative = less light; 1.2% of 410,000 active; AID 1159524, 2015; active = well fitted falling curve with a large enough effect; inconclusive = small, poorly fitted or top-dose-only effect; inactive = no such curve, though single readings can be large or run the other way; tested in HEK293T cells; further: on the % scale 0 is the no-effect control and ±100 the full control effect; nearly all actives have a fitted effect of over 45% in size; luciferase light after 4 h
Marburg entry inh – qHTS for inhibitors of binding or entry into cells for Marburg Virus; Marburg virus pseudotyped entry inhibition, cell reporter; control for the full effect not named in the record; about a third of the inactives were read at about 46 µM; Potency, µM (highest dose often 37.8 µM), inactives show at the highest dose activity change, negative = inhibition, most hits filed as inhibitors; 1.8% of 300,000 active; active = well fitted inhibition curve with a large enough effect; inconclusive = small, poorly fitted or top-dose-only effect, or effect the other way; inactive = flat fitted curve, though single readings scatter; tested in HEK293 cells; about a fifth of its hits are not listed in these tables; further: on the % scale 0 is the no-effect control and ±100 the full control effect; luciferase read-out
SARS PLpro yeast – qHTS of Yeast-based Assay for SARS-CoV PLP; S. cerevisiae expressing SARS-CoV PLpro, growth rescue; control for the full effect not named in the record; Potency, µM (doses to about 32.9 µM), for the others: at the highest dose activity, positive = growth rescue; 0.19% of 330,000 active; active means well fitted rising curve with a large enough effect; inconclusive means small, poorly fitted or top-dose-only effect; inactive means no such curve, though single readings can be large or run the other way; further: 0% is about no effect; nearly all actives have a fitted effect of over 55% in size; growth read by luminescence after 48 h
NS1 inh – qHTS Assay for Inhibitors of Influenza NS1 Protein Function | Potency, µM (highest dose often 46.1 µM), for inactives: top-dose activity, positive = more growth | S. cerevisiae slowed by influenza A NS1, growth recovery by OD600 | 0.4% of 270,000 active | AID 2326, 2010; active means well fitted rising curve with a large enough effect; inconclusive means small, poorly fitted or top-dose-only effect; inactive means no such curve, though single readings can be large or run the other way; further: nearly all actives have a fitted effect of over 50% in size
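S. cerevisiae expressing influenza A NS1, grown in glucose, washed, then diluted 1:100 into pH 6.0 -URA galactose medium with 23 nl compound. Growth recovery read as OD600; NS1-free strain serves as control.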
RE007 growth inh – qHTS Assay for Inhibitors of the HIV-1 protein Vpr | Potency, µM (top dose mostly 92.2 µM), inactives show at the top dose activity change, negative = less growth | S. pombe RE007 Vpr strain, BacTiter-Glo ATP luminescence, 24 h; control for the full effect not named in the record | 0.21% of 360,000 active | AID 651644, 2012; active = well fitted falling curve with a large enough effect; inconclusive = small, poorly fitted or top-dose-only effect; inactive = no such curve, though single readings can be large or run the other way;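 further: on the % scale 0 is the no-effect control and ±100 the full control effect; nearly all actives have a fitted effect of over 50% in size; the assay follows cell death caused by Vpr and the record does not say whether a fall means rescue or toxicity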
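Fission yeast RE007 carrying one integrated HIV-1 vpr copy, seeded at OD 0.01 in PMG+AL medium with 23 nL pinned compound. Grown 24 h at 30 degrees; viability read by BacTiter-Glo luminescence after 5 min.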
Cruzain Triton – qHTS Assay for Promiscuous and Specific Inhibitors of Cruzain (with detergent); purified cruzain, Z-FR-AMC fluorescence, 0.01% Triton; 0.43% of 200,000 active; AID 1478, 2009; Potency, µM, for the others: max response, negative = inhibition, most hits filed as inhibitors;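 further: plate controls were neutral wells for no effect and buffer without enzyme for full effect; nearly all actives have a fitted effect of over 40% in size; top concentration of the series not given in the record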
Target sequence (P25779 123-467 limits assumed): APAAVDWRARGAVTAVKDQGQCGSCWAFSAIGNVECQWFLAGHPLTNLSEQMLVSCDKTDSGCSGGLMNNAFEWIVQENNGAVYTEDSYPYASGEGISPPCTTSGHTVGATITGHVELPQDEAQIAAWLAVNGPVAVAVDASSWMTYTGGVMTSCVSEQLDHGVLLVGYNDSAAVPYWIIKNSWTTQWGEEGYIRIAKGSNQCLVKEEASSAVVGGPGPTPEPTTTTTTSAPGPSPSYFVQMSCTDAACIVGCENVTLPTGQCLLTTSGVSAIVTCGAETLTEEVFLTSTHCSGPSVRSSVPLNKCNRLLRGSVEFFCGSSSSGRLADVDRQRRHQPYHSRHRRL
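15 min RT preincubation of 1.5 nM cruzain with compound, then 2 uM Z-FR-AMC added; kinetic AMC fluorescence, 60 s delta. Triton X-100 0.01%, pH 5.5.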
LASV entry inh – qHTS for Inhibitors of binding or entry into cells for Lassa Virus; Potency, µM (doses to about 37.9 µM), inactives show at the top dose activity change, negative = inhibition, most hits filed as inhibitors; Lassa virus pseudotype entry inhibition, cell reporter; control for the full effect not named in the record; 1.2% of 300,000 active; active means well fitted inhibition curve with a large enough effect; inconclusive means small, poorly fitted or top-dose-only effect, or effect the other way; inactive means flat fitted curve, though single readings scatter; tested in HEK293 cells; further: on the % scale 0 is the no-effect control and ±100 the full control effect; nearly all actives have a fitted effect of over 50% in size; luciferase read-out
Cruzain noTriton – qHTS Assay for Promiscuous and Specific Inhibitors of Cruzain (without detergent) | Cruzipain (Trypanosoma cruzi), P25779 | purified cruzain, Z-FR-AMC fluorescence, no detergent | Potency, µM, for inactives: max response, negative = inhibition, actives largely listed as inhibitors | 2.3% of 200,000 active;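 further: plate controls were enzyme without inhibitor for no effect and buffer without enzyme for full effect; nearly all actives have a fitted effect of over 40% in size; top concentration of the series not given in the record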
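Purified cruzain at 1.5 nM, pre-incubated 15 min with compound at room temperature in 100 mM sodium acetate pH 5.5, 5 mM DTT, 0.00005% Triton X-100. Reaction started with 2 uM Z-FR-AMC; AMC fluorescence increase over 60 s gives rate.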
Numbers without * were called inactive; ? = inconclusive; nt = not tested or not shown; [ ] = remark or other dose. Unless noted, the call rests on the fitted dose curve; in most records, active means well fitted curve in the direction sought with a large enough effect; inconclusive means small, poorly fitted or top-dose-only effect, or another doubt; inactive means no such curve, though single readings can be large; an effect the other way counts as inactive or inconclusive. Potency means the concentration at half of the fitted maximal effect.

SMILES	StopGo reporter	Marburg entry inh	SARS PLpro yeast	NS1 inh	RE007 growth inh	Cruzain Triton	LASV entry inh	Cruzain noTriton
CCN(CC(=O)Nc1ccc(NC(C)=O)cc1)C(=O)c1ccc(S(=O)(=O)N2CCCC2)cc1	0.0%	-2.5%	nt	nt	-2.3%	nt	13.7%	nt
COc1ccc(-c2noc(CSc3nc4ccccc4[nH]3)n2)cc1	-19.2%	-1.5%[46.1 µM]	nt	nt	nt	-0.3%	23.1%[46.1 µM]	24.4%
O=C(NCCC1CCCCN1S(=O)(=O)c1ccc(F)cc1)C(=O)Nc1ccccc1F (stereo not given)	-9.7%	-21.8%[46.1 µM]	0.5%	nt	-6.0%	nt	-2.9%	nt
COCCN(C(=O)COC(=O)c1cc2ccccc2cc1O)c1c(N)n(Cc2ccccc2)c(=O)[nH]c1=O	3.0%	-18.1%	-0.1%	nt	-0.3%	nt	-18.8%	nt
Fc1ccc(NC(=S)N2CCCC(c3ccccc3)=N2)cc1	42.4%[activator]	-28.0%[46.1 µM]	-0.6%	-0.1%	-18.6%	nt	?	nt
CN(C)CCCOc1nc2c(c(=O)n(C)c(=O)n2C)n1C	5.1%	12.5%	21.4%	16.7%	9.0%	1.5%	9.2%	-3.2%
CCOC(=O)C1Oc2ccccc2C(c2cccc3ccccc23)=C1C(=O)OC (stereo not given)	?	nt	-9.0%	nt	-0.9%	-0.6%	nt	-4.6%
Cc1ccc2cc(CN(CCN3CCOCC3)C(=O)NCc3ccccc3)c(=O)[nH]c2c1C	3.1%	?	6.1%	1.8%	-2.4%	2.6%	1.8%	-2.5%
Cc1ccc(S(=O)(=O)NCc2csc(-c3cccs3)n2)cc1	25.4%	nt	1.2%	-2.0%	-3.8%	nt	nt	nt
COc1cc(OC)cc(-c2cc3nc(C)c(CCC(=O)O)c(=O)n3[nH]2)c1	-5.0%	nt	1.5%	-0.5%	-8.8%	2.3%	nt	1.5%
CCCCCCCNC(=O)C1(CC2CC(c3cccc(Br)c3)=NO2)CCN(C(=O)OC(C)(C)C)CC1 (stereo not given)	8.8%	nt	-3.4%	?	3.1%	nt	nt	nt
Cn1c(=O)c2[nH]c(N=NN3CCCCC3)nc2n(C)c1=O	2.0%	4.0%[46.1 µM]	nt	nt	-20.7%	nt	?	nt
C=CCn1c(Cc2csc(N)n2)nnc1SCc1ccc(C(=O)OC)cc1	61.7%[activator]	16.0%	-1.4%	6.3%	-2.3%	3.4%	14.1%	-2.3%
Cc1c(NC(=O)c2coc(=O)c(Br)c2)c(=O)n(-c2ccccc2)n1C	?	?	nt	5.1%	2.3%	-5.7%	?	5.6%
Nc1cc(=O)[nH]c(SCc2ccccc2Cl)n1	-22.5%	nt	4.9%	28.3%	0.1%	nt	nt	nt
Cn1cccc1C(=O)N1CCc2ccccc2C1	16.0%	-27.3%[46.1 µM]	-4.9%	-0.1%	-6.2%	nt	?	nt
CCN(CC)CCCNc1nc(-c2ccccc2)nc2ccccc12	nt	16.4µM*	9.7%	1.7%	-14.1%	-1.3%	?	-13.1%
CCCC1(C)NC(=O)c2ccccc2O1 (stereo not given)	3.4%	0.3%[46.1 µM]	0.8%	-0.1%	1.4%	nt	3.8%	nt
CC(C)c1ccc2oc(=O)cc(CN3CCCCC3)c2c1	0.0%	?	-0.8%	1.2%	-11.6%	nt	1.8%[46.1 µM]	nt
Cc1ccc(CS(=O)(=O)CCC(=O)NCCCOC(C)C)cc1	nt	-1.7%	2.6%	-5.9%	-6.1%	-2.2%	-18.1%	-0.9%
CCOC(=O)CSc1nc2sc3c(c2c(=O)n1-c1ccc(OC)cc1)CCN(C)C3	-20.9%	nt	-0.5%	7.3%	-1.7%	nt	nt	nt
C/C=C(/C)C(=O)Nc1cccc(C2=NOC3(C2)C[C@@H](C(N)=O)N(C(=O)/C=C/CC)C3)c1 (stereo not given in full)	-7.0%	nt	0.1%	7.5%	-16.5%	nt	nt	nt
Cc1ccc(NC(=O)Cn2nc(C(=O)O)c3ccccc3c2=O)c([N+](=O)[O-])c1	-6.1%	13.8%[46.1 µM]	-1.6%	1.0%	-1.3%	nt	2.3%[46.1 µM]	nt
COC(=O)C1C(O)=CC(=O)CC1C (stereo not given)	10.0%	8.3%	21.6%	29.0%	-27.5%	3.1%	14.8%	0.3%
CCOC(=O)C1=C(C)OC(N)=C(C#N)C1c1cc(Cl)c(OCC(N)=O)c(OC)c1 (stereo not given)	-10.9%	-17.6%[46.1 µM]	nt	2.2%	2.8%	-1.9%	1.8%	-8.5%
O=C(/C=C/c1cccc([N+](=O)[O-])c1)NC(=S)Nc1cccc(NC(=O)c2ccccc2Cl)c1	?	?	-0.9%	25.4%	13.4%	-5.6%	?	6.31µM*
CCOCCCNC(=O)c1oc2ccc3c(c2c1C)C(O)CC(C)(C)O3 (stereo not given)	-7.8%	nt	0.6%	4.6%	-4.0%	nt	nt	nt
CCCCc1nn2c(=O)cc(COC(=O)c3ccc(NC(=O)C(CC)CC)cc3)nc2s1	?	nt	nt	nt	nt	-1.3%	-2.1%[46.1 µM]	1.5%
CN(Cc1ccccc1)C(=O)CCC1CCN(C(=O)CCC(F)(F)F)CC1	0.0%	0.5%	0.1%	-14.0%	-9.0%	nt	?	nt
Cc1c(C(=O)OC2CCCCC2)[nH]c2c1C(=O)CC(c1ccc(F)cc1)C2 (stereo not given)	-16.8%	?	nt	nt	nt	0.5%	?	0.9%
COc1ccc(NS(=O)(=O)c2cc(C)ccc2OC)cc1OC	29.0%	-16.0%	-1.7%	-0.4%	4.5%	-1.9%	-5.5%	3.7%
COc1ccc(-c2csc3nc(C)n(-n4cccc4)c(=O)c23)cc1	-1.8%	-1.0%	5.2%	-56.5%	11.2%	1.0%	?	-8.5%
COc1cc(/C=C/C(=O)OCC(=O)N2CCCCCC2)ccc1OCC#N	-0.2%	0.1%[46.1 µM]	1.1%	nt	29.6%	nt	nt	nt
Cc1sc2ncnc(SCC(=O)NC3CC3)c2c1C	-19.4%	8.4%	17.7%	-1.9%	21.0%	3.6%	28.2%[14.3 µM]	0.8%
O=S1(=O)CC(N2CCCCC2)C(N2CCCCC2)C1 (stereo not given)	9.6%	1.4%	6.7%	?	-0.8%	1.9%	7.7%	-11.5%
CCOc1ccccc1NC(=O)c1cc(C(=O)c2cc(Br)ccc2O)coc1=N	?	-29.1%[46.1 µM]	1.3%	nt	12.8%	nt	?	nt
Nc1nnc(CC(=O)N/N=C/c2ccc(-c3ccc(F)cc3)o2)s1	15.7%	-1.4%[46.1 µM]	-4.1%	6.3%	-2.3%	nt	16.9%[46.1 µM]	nt
CCOC(=O)c1cnc2c(C)c(Cl)ccc2c1Nc1ccc(S(=O)(=O)Nc2ncccn2)cc1	nt	0.0%	0.1%	7.4%	nt	-6.7%	1.9%	14.3%
CNC(=O)c1[nH]cnc1C(=O)N[C@@H](C)C(=O)OC(C)(C)C	0.0%	nt	-2.5%	-4.2%	-11.4%	nt	nt	nt
O=[N+]([O-])c1cc([N+](=O)[O-])c(Oc2c(F)ccc(F)c2F)cc1NN1CCCCC1	-27.2%	nt	-3.8%	-15.9%	8.7%	nt	nt	nt
COC(=O)c1ccc(NC(=O)Cn2c([N+](=O)[O-])cnc2C)cc1	-7.7%	nt	-5.1%	6.6%	1.0%	nt	nt	nt
CN1CCN(c2ccc([N+](=O)[O-])cc2Cl)CC1	-8.6%	-27.1%[46.1 µM]	0.0%	3.0%	-0.6%	nt	?	nt
Cc1ccn(C(=O)c2ccc(NC(=O)C3CC3)cc2)n1	-11.4%	nt	-0.4%	-7.8%	-0.9%	nt	nt	nt
c1ccc(Nc2nnc(-c3cccc4ccccc34)o2)cc1	46.2%[activator]	?	-1.2%	3.1%	18.2%	nt	9.0%	nt
O=C(c1cccc(NS(=O)(=O)c2ccc(Br)cc2)c1)N1CCN(c2ccccc2O)CC1	-6.0%	-19.5%	6.7%	nt	-16.2%	nt	1.5%	nt
O=C(NCCC(=O)N1CCOCCOCCOCCOCC1)OCc1ccccc1	0.7%	nt	1.5%	3.5%	-15.4%	nt	nt	nt
CCCC(=O)Nc1ccc(C(=O)N/N=C/c2ccc[nH]2)cc1	28.2µM*	7.08µM*	9.4%	-7.0%	10.7%	-7.5%	10µM*	2.0%
Cc1ccc(SCC(=O)NNC(=O)CNC(=O)c2ccccc2F)cc1	-8.4%	-4.5%[46.1 µM]	0.0%	nt	21.9%	nt	7.5%[46.1 µM]	nt
CC(C)C[C@H](NC(=O)c1nc[nH]c1C(=O)NCCCCCNC(=O)OC(C)(C)C)C(=O)OC(C)(C)C	?	nt	-1.0%	12.8%	10.9%	nt	nt	nt
COc1cc(Cl)c(C)cc1NC(=O)c1cc2c(Cl)nc3ccc(C)cc3c2s1	-18.2%	-0.8%[46.1 µM]	nt	nt	nt	-0.2%	0.5%[46.1 µM]	-5.1%
Later entries.
SMILES	StopGo reporter	Marburg entry inh	SARS PLpro yeast	NS1 inh	RE007 growth inh	Cruzain Triton	LASV entry inh	Cruzain noTriton
CCn1c(=O)c(C(=O)Nc2ccccc2F)c(O)c2ccccc21	8.1%	nt	-2.1%	-10.3%	7.4%	nt	nt	nt
CCN(CC)c1ccc(CNc2nc3ccccc3n2CCN2CCOCC2)cc1	-25.8%	11.2µM*	-0.6%	-2.3%	-18.7%	nt	-21.7%[46.1 µM]	nt
O=C(NC(=O)c1ccccc1)Nc1ccc(-c2cc(C(F)(F)F)nn2-c2ccccc2)cc1	0.0%	10.8%[46.1 µM]	nt	nt	nt	-0.2%	17.0%[46.1 µM]	-13.4%
COc1cccc(C(=O)N2CCC(C(=O)NCc3ccco3)CC2)c1	-0.8%	24.6%[46.1 µM]	0.3%	20.2%	-3.7%	nt	12.7%	nt
OCC1(Cc2ccccc2C(F)(F)F)CCN(Cc2cccc3cnccc23)CC1	-12.1%	?	1.4%	-3.2%	-8.5%	nt	?	nt
O=C(Nc1ccc(N2CCOCC2)cc1)c1cn2ccccc2n1	-77.2%	?	-5.0%	16.2%	-24.6%	4.9%	7.94µM*	-28.2%
COC(=O)CC(=O)CSc1nc2c(cc1C#N)CCC2	0.0%	?	1.4%	nt	-4.2%	-2.0%	14.7%	1.8%
Cc1cc(Nc2cccc(C(=O)O)c2)n2nc(C)nc2n1	-8.9%	?	nt	nt	nt	-3.7%	3.7%[46.1 µM]	2.0%
